Tgondii IFNg – blocks Toxoplasma gondii growth in the presence of IFN-gamma. Toxoplasma gondii growth in IFN-gamma-treated host cells; hits give low values; reference of the scale not given here. activity change, negative = inhibition, %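 (about 20 µM by stock and volumes)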. hit rate 3.8% among 69,000;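 active = below -70%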;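 also: host cells are HeLa cells infected with Toxoplasma gondii; parasite growth read as luciferase light; one replicate is shown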
* marks the source's active call; other numbers are inactive results; & = joins results of further samples.

SMILES	Tgondii IFNg
CC(=O)O[C@H]1C[C@@]2(C)[C@@H](C[C@@H](O)[C@H]3[C@@]4(C)CC[C@@H](O)[C@@H](C)C4CC[C@@]32C)/C1=C(\CCC=C(C)C)C(=O)O (stereo partly specified)	8.5
N#Cc1c(C(F)(F)F)cc(-c2ccccc2)nc1SCc1ccc(Br)cc1	65.2
O=C(c1cn(-c2ccccc2)nn1)N(Cc1cnn(-c2ccccc2)c1)C1CC1	386.3
O=C(c1ccccn1)N1CC2CN(C(=O)c3cscn3)CC2C1 (stereo unspecified)	11.8
Cc1cccc(C(=O)NCCc2csc(-c3ccc(F)cc3)n2)c1	-57.9
COc1cccc2c(=O)c(C/C=C(/C)Cl)c(C)[nH]c12	-80.6*
CCOc1ccc(-c2nc(CN3CCN(C(=O)Nc4cccc(Cl)c4)CC3)c(C)o2)cc1	-47.7
C[C@H]1CCCCO[C@H](CN(C)S(=O)(=O)c2ccccc2)[C@@H](C)CN([C@@H](C)CO)C(=O)c2cc(NC(=O)Nc3ccc4c(c3)OCO4)ccc2O1	-90.9*
O=C(CN1C(=O)CCc2cc(S(=O)(=O)N3CCCC3)ccc21)Nc1ccc(Cl)cc1	46.2
Cc1noc(C)c1C(=O)N(C)C[C@H]1OCc2ccccc2-c2ccccc2C(=O)N([C@H](C)CO)C[C@@H]1C	-36.9
O=c1sc2ccccc2n1Cc1nnc(-c2ccccc2Cl)o1	33.7
Cc1ccc(S(=O)(=O)Nc2cncc(C(=O)Nc3cccc(F)c3)c2)c(C)c1	22.9
C[C@H]1CN([C@@H](C)CO)C(=O)c2ccccc2-c2ccccc2CO[C@H]1CN(C)Cc1ccccc1C(F)(F)F	-57.2
Cc1ccc(NC(=O)c2cccc(C(C)(C)C#N)c2)cc1Nc1ccc2ncn(C)c(=O)c2c1	-14.5
Cc1ccc(-c2nnc(-c3ccccc3)n2-c2ccc(C)cc2)cc1	-3.0
CC1CCC(CNC(=O)c2ccc(Cn3cnnn3)cc2)(N2CCCCC2)CC1 (stereo unspecified)	-3.9
COCCN(C[C@H]1[C@H](c2ccccc2)[C@@H](CO)N1C(C)=O)C(=O)c1cccnc1	-11.9
COc1cc(NCCN(C)S(C)(=O)=O)ncn1	-48.3
COc1cc(N2C[C@H]3C[C@@H](CC(=O)N(C)C)O[C@@H]3C2)ncn1	-0.6
O=c1c2cnn(-c3ccccc3)c2cnn1-c1ccccc1	96.6
COc1ccccc1C(=O)Nc1cccc(NC(=O)c2c(Cl)cnn2C)c1	-85.2*
N#Cc1cccc(-c2ccc(C3[C@@H]4CN(C(=O)Cc5ccncc5)C[C@H]3N4)cc2)c1 (stereo partly specified)	13.7&-12.3
CN1CCn2c(nnc2C2CCCN2C(=O)c2cc(C3CCCCC3)no2)C1 (stereo unspecified)	-13.4
COCC(=O)Nc1ccc2c(c1)C(=O)N(C)[C@H]1CC[C@H](CC(=O)NC3Cc4ccccc4C3)O[C@H]1CO2	-3.8
CCCNC[C@H]1[C@@H](c2ccc(C3=CCCCC3)cc2)[C@@H](CO)N1C(=O)C1CCC1	-47.5
C[C@H](NC(=O)C[C@H]1CC[C@@H]2[C@H](COc3ccc(NC(=O)C4CCOCC4)cc3C(=O)N2C)O1)c1ccccc1	8.3
Cc1cc(C)n(C(=O)c2ccoc2C)n1	-34.0
Cc1ccc(C)c(NC(=O)CN2C(=O)CCc3cc(S(=O)(=O)N4CCCCC4)ccc32)c1	-19.8
Cc1ncc(C(=O)NCc2ccccc2)c(C2CCCCN2CC(=O)Nc2cc(C)on2)n1 (stereo unspecified)	2.3
COc1ccc(C(C)=O)cc1CSc1nc2ccc(C(F)(F)F)cc2[nH]1	-51.6
CO[C@@H]1CC[C@H]2CCN(C)C(=O)[C@@H](C)N(C)C(=O)c3cccc(C#N)c3OC[C@@H]1O2	22.7
CCOc1cc(NC(=S)NCc2ccccc2)c(OCC)cc1NC(=O)c1ccco1	32.9
N#C[C@@H]1N[C@@H](CO)[C@H]1c1ccc(C#CC2CCCCC2)cc1	12.9
COc1cccc(C#Cc2ccc3c(c2)[C@H]2[C@H](CCN2C(=O)c2ccccc2F)[C@@H](CO)N3)c1	-5.6
Cc1ccc(Cl)cc1NC(=O)N1CCC2(CC1)Nc1cc(F)ccc1-n1cccc12	37.7
Cc1cccc(-n2cc(-c3ccnc(NC(C)Cc4ccncc4)n3)cn2)c1 (stereo unspecified)	-50.7

Reprinted from above (6 entries):
SMILES	Tgondii IFNg
CCCNC[C@H]1[C@@H](c2ccc(C3=CCCCC3)cc2)[C@@H](CO)N1C(=O)C1CCC1	-47.5
C[C@H](NC(=O)C[C@H]1CC[C@@H]2[C@H](COc3ccc(NC(=O)C4CCOCC4)cc3C(=O)N2C)O1)c1ccccc1	8.3
Cc1cc(C)n(C(=O)c2ccoc2C)n1	-34.0
Cc1ccc(C)c(NC(=O)CN2C(=O)CCc3cc(S(=O)(=O)N4CCCCC4)ccc32)c1	-19.8
Cc1ncc(C(=O)NCc2ccccc2)c(C2CCCCN2CC(=O)Nc2cc(C)on2)n1 (stereo unspecified)	2.3
COc1ccc(C(C)=O)cc1CSc1nc2ccc(C(F)(F)F)cc2[nH]1	-51.6

(next part)
SMILES	Tgondii IFNg
CNC(=S)N1N=C(c2c(-c3ccccc3)c3cc(Cl)ccc3[nH]c2=O)CC1c1ccccc1 (stereo unspecified)	156.0
CC(C)NC(=O)N1Cc2ccnn2CC(COc2cccnc2)C1 (stereo unspecified)	2.6
Cc1cccc(C(C(=O)NCCC(=O)Nc2nccs2)N(C)C)c1 (stereo unspecified)	5.9
CCN(CC)CC1CN(S(=O)(=O)C2CC2)Cc2nccn2C1 (stereo unspecified)	3.5
Cc1ccc(CN2CCN(c3ncnc4ccccc34)CC2)o1	-39.2
Cc1nnc(NC(=O)C2CC(=O)N(CCc3c[nH]c4ccc(Cl)cc34)C2)s1 (stereo unspecified)	44.6
O=C(O)c1ccc(CSc2ccccn2)cc1	0.2
CCOC(=O)N1CCC2(CC1)N=C(c1ccccc1O)CC(c1cccc(OC)c1O)N2 (stereo unspecified)	309.1
CNc1ncccc1CN1C[C@H](C(=O)N(C)C)[C@@H](c2ccc(CNC(C)=O)cc2)C1	-29.5
COc1cc(CC(=O)NCCc2ccc(S(N)(=O)=O)cc2)cc(OC)c1OC	5.6
Cc1nc(-c2ccccc2)sc1C(=O)Oc1ccccc1N1CCOCC1	-56.0
COCCCN(C(=O)Nc1ccccc1SC)C1CCN(C)CC1	5.3
CO[C@@H](CN(C)C(=O)C1CCOCC1)[C@@H](C)CN(C(=O)Nc1ccc(C(F)(F)F)cc1)[C@@H](C)CO	-49.4
Nc1cccc(CCc2nc3ccccc3[nH]2)c1	22.0
CCc1cccc(NC(=O)c2c(O)c3cccnc3n(-c3cccc(OC)c3)c2=O)c1	89.0
COc1ccc(NC(=O)N2CCC3(CC2)Nc2cc(F)ccc2-n2cccc23)cc1OC	226.4
Cc1ccc(-c2nc(C)c(CCNC(=O)C(=O)Nc3ccc(C)cc3C)s2)cc1	19.0
Cc1ccc(=O)n(CC(=O)NC(Cc2cccs2)c2ccccn2)n1 (stereo unspecified)	10.2
Cc1ccc(-n2nnc3ccccc3c2=O)cc1C	-7.9
O=C(C[C@@H]1CC[C@H]2[C@@H](COC[C@@H](O)CN2C(=O)c2cc(Cl)cc(Cl)c2)O1)N1CCc2ccccc2C1	-25.2
COc1ccc(NC(=O)N2CCC3(CC2)NC(=O)c2cc(C)ccc2N3C)cc1	74.5
O=C(NCc1cnc2n1CCN(Cc1ccsc1)C2)C1CC1	13.9
CC1=C(C(=O)NCCCN2CCCC2=O)C2(CCN(S(=O)(=O)c3cccs3)CC2)OC1=O	22.8
Cc1cc(NC(=O)CCC2CCCCC2)n(-c2ncnc3c2cnn3-c2cccc(Cl)c2)n1	3.4
NCc1c[nH]c(=S)n1[C@H]1CCc2c(F)cc(F)cc2C1	1.0
C[C@H](CO)N1C[C@H](C)[C@H](CN(C)Cc2ccc(C(=O)O)cc2)Oc2ccc(NC(=O)CCN3CCOCC3)cc2CC1=O	14.1
CCOC(=O)c1ccc(NC(=O)N2CCN(Cc3nc(-c4cccc(Cl)c4)oc3C)CC2)cc1	-4.8
CCCSCCCNC(=O)c1nc(Nc2ccc(F)cc2)c2ccccc2n1	-54.6
Cn1c(=O)c2c(-c3ccc(F)cc3)cc(-c3cccc(F)c3)nc2n(C)c1=O	-10.0
CCC1CN(Cc2cnc(-c3cccs3)nc2)CCN1C(C)C (stereo unspecified)	0.8
FC(F)(F)c1[nH]ncc1-c1nnnn1-c1ccccc1	-43.7
COc1cc(NC(=O)Nc2ccc(-c3nc(-c4ccccc4)co3)cc2)cc(OC)c1OC	-87.7*
NC(=O)CSc1ccc(-c2ccc3c(c2)OCCO3)nn1	76.9
COc1ccc(CC(=O)N(C)C2Cc3ccccc3C2)cc1OC	-2.2
O=C1C(Cc2ccccc2)N=C2c3ccccc3N=C(SCc3cc(=O)n4cc(Br)ccc4n3)N12 (stereo unspecified)	7.8
CC(C)(C)c1ccc(OCC(=O)NCc2ccc(-n3cccc3)cc2)cc1	19.2

Compounds above with an aryl thioether with sulfur outside any ring:
SMILES	Tgondii IFNg
N#Cc1c(C(F)(F)F)cc(-c2ccccc2)nc1SCc1ccc(Br)cc1	65.2
COc1ccc(C(C)=O)cc1CSc1nc2ccc(C(F)(F)F)cc2[nH]1	-51.6
O=C(O)c1ccc(CSc2ccccn2)cc1	0.2
COCCCN(C(=O)Nc1ccccc1SC)C1CCN(C)CC1	5.3
NC(=O)CSc1ccc(-c2ccc3c(c2)OCCO3)nn1	76.9

3 entries from above in another layout.
canonical_smiles,Tgondii IFNg
CCOC(=O)c1ccc(NC(=O)N2CCN(Cc3nc(-c4cccc(Cl)c4)oc3C)CC2)cc1,-4.8
CCCSCCCNC(=O)c1nc(Nc2ccc(F)cc2)c2ccccc2n1,-54.6
Cn1c(=O)c2c(-c3ccc(F)cc3)cc(-c3cccc(F)c3)nc2n(C)c1=O,-10.0

(listing goes on)
SMILES	Tgondii IFNg
O=C1c2ccccc2C(=O)N1CN1CCN(C(c2ccccc2)c2ccccc2)CC1	-40.9
Cc1cc(NC(=O)Cn2c(C)nc3sc(C)c(C)c3c2=O)n(Cc2ccncc2)n1	9.5
CC(C)Cc1ccc(S(=O)(=O)N2CCC3(CC2)Nc2cc(F)ccc2-n2cccc23)cc1	-1.3
Cc1oc(C2CCN(S(=O)(=O)c3ccc(C#N)cc3)CC2)nc1C(=O)N1CCCC1	38.3
Cc1ccc(NC(=O)C(=O)NCCc2sc(-c3ccc(Cl)cc3)nc2C)cc1	261.5
COc1ccc(C(=O)O)cc1CN1CCOCC1	-20.2
O=C(Sc1ccc(Cl)cc1)c1cnn(-c2ccc(Cl)cc2)c1C(F)(F)F	-94.7*
Cc1cc2cc(C(=O)Nc3ccc(CCC(=O)N4CCCC4)cc3)ccc2o1	124.1
Cc1nn(C)c(C)c1CN(C(=O)c1cnn2ccn(C)c12)C1CC1	8.1
CSc1ccc(CNC(=O)c2nc(Nc3ccccc3)c3ccccc3n2)cc1	11.7
CCc1nc(OCC(=O)Nc2cc(OC)ccc2OC)c2ccccc2n1	3.6
COc1ccc(NC(=O)C2=NOC3(CCCN(S(=O)(=O)CC(C)C)C3)C2)cc1 (stereo unspecified)	-2.2
CN1C(=O)c2cc(NC(=O)Nc3ccccc3Cl)ccc2OC[C@H]2O[C@@H](CC(=O)NCCCN3CCOCC3)CC[C@@H]21	0.2
C[C@@H]1CN([C@H](C)CO)C(=O)Cc2cc(NC(=O)Nc3ccc(F)cc3)ccc2O[C@@H]1CN(C)S(C)(=O)=O	-46.3
Cc1cc2nnc(-c3ccc(C(F)(F)F)cc3)n2[nH]1	63.8
CCC(=O)N1C[C@@H](O)COC[C@H]2O[C@@H](CC(=O)NCc3ccc(Oc4ccccc4)cc3)CC[C@@H]21	-34.0
C[C@H](NC(=O)C[C@H]1CC[C@@H]2[C@H](COC[C@H](O)CN2C(=O)Nc2cccc(Cl)c2)O1)c1ccccc1	-53.9
CC(=O)Oc1ccc2c(c1C(C)C)CCC1C(C)(C)CCC[C@]21C (stereo partly specified)	-19.6
CO[C@@H]1CN(C)C(=O)c2cc(NC(=O)C3CCOCC3)ccc2OC[C@@H](C)N(C(=O)Nc2ccc(C(F)(F)F)cc2)C[C@H]1C	-0.8
Nc1cc(C(F)(F)F)ccc1Oc1ccc(Cl)cc1Cl	107.3
CC(C)c1cc(C(=O)N2CCc3onc(-c4ccc5c(c4)OCO5)c3C2)n[nH]1	20.4
CCC(=O)N1Cc2cc(C(=O)NCCOC)nc(-c3cccc(-c4ccc(C#N)cc4)c3)c2[C@@H]1CCO	66.9
CC(C)c1cc(C(=O)N2CCCC(c3[nH]ncc3-c3ccccc3)C2)on1 (stereo unspecified)	-3.5
O=C(CCc1nc2ccc(Cl)cc2[nH]1)NCc1ccc2[nH]c(=O)[nH]c2c1	1.0
Cc1oc(-c2ccc(C(=O)Nc3ccc(F)cc3F)cc2)nc1CN1CCN(c2ccccc2)CC1	214.8
O=C(NCc1ccc(F)cc1)[C@@H]1[C@@H](CO)[C@@H]2Cn3c(cccc3=O)[C@@H]2N1C(=O)c1cccnc1	-1.2
Fc1cccc(Cl)c1CSC(=S)N1CCSCC1	-55.7
Cc1ccc2c(c1)C(O)(CC(=O)/C=C/C=C/c1ccccc1)C(=O)N2 (stereo unspecified)	1.4
COc1ccc2c3c([nH]c2c1)[C@@H](CO)N(Cc1ccccn1)CC31CCN(C(C)=O)CC1	46.9
COc1ccc(CCN2C[C@]34CN(c5ncc(F)cn5)C[C@@H](C[C@H]3S2(=O)=O)O4)cc1	-7.8
CO[C@@H]1CN(C)C(=O)c2ccc(NC(C)=O)cc2OC[C@H](C)N(C(=O)c2cnccn2)C[C@H]1C	-35.2
CC1(C)CCc2cc(-c3ccn[nH]3)ccc2O1	147.8
COc1ccc(-c2ccc(C3NCCc4[nH]cnc43)cc2)cn1 (stereo unspecified)	53.2
Cc1nc(-c2cccc(C(=O)NCCC3CCCN(C)C3)c2)no1 (stereo unspecified)	-3.1
O=C(c1cncc(NS(=O)(=O)c2ccc(F)cc2)c1)N1CCOCC1	50.2
O=C1CCC(=O)N[C@@H](c2ccc3c(c2)OCO3)C/C=C\CCN1	-15.3
CCN(Cc1noc(C)n1)C(=O)CC1CCc2ccccc21 (stereo unspecified)	-2.0

Screening results from PubChem.

Some of the compounds tested. The share of hits here may be higher or lower than overall.
